Cruzain Triton: cruzain (T. cruzi) inhibition with detergent; Potency, µM, for inactives: max response, negative = inhibition, hits mostly inhibitors; P25779; actives 0.43% (n = 200,000); AID 1478; purified cruzain, Z-FR-AMC fluorescence, 0.01% Triton;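 note: plate controls were neutral wells for no effect and buffer without enzyme for full effect; nearly all actives have a fitted effect of over 40% in size; top concentration of the series not given in the record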
Target sequence (P25779 123-467 limits assumed): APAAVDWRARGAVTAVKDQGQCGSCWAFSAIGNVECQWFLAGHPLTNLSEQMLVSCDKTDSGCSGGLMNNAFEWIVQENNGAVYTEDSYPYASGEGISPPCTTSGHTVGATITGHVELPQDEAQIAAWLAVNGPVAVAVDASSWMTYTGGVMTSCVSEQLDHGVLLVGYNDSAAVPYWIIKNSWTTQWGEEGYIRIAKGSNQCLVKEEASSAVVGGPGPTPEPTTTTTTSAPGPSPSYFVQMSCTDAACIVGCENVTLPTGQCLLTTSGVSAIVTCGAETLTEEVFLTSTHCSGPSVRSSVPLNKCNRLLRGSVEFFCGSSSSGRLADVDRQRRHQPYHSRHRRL
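Purified cruzain (1.5 nM final) was preincubated with compounds for 15 min at room temperature in 100 mM sodium acetate pH 5.5, 5 mM DTT, 0.01% Triton X-100. Reaction started with 2 uM Z-FR-AMC; AMC fluorescence change over 60 s gave activity.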
MARV entry inh: blocks Marburg virus binding to or entry into cells; AID 540276; Potency, µM (highest dose often 37.8 µM), without a hit: top-dose activity change, negative = inhibition, actives largely listed as inhibitors; Marburg virus pseudotyped entry inhibition, cell reporter; control for the full effect not named in the record; about a third of the inactives were read at about 46 µM; actives 1.8% (n = 300,000); active = well fitted inhibition curve with a large enough effect; inconclusive = small, poorly fitted or top-dose-only effect, or effect the other way; inactive = flat fitted curve, though single readings scatter; tested in HEK293 cells; about a fifth of its hits are not listed in these tables; note: % is set by controls: 0 for no effect and ±100 for the full control effect; luciferase read-out
NS1 function inh: blocks influenza NS1 protein function; S. cerevisiae slowed by influenza A NS1, growth recovery by OD600; Potency, µM (highest dose often 46.1 µM), for the others: top-dose activity, positive = more growth; actives 0.4% (n = 270,000); AID 2326; active means well fitted rising curve with a large enough effect; inconclusive means small, poorly fitted or top-dose-only effect; inactive means no such curve, though single readings can be large or run the other way; note: nearly all actives have a fitted effect of over 50% in size
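Compounds were scored for reversing the slow growth caused by influenza A NS1 in S. cerevisiae, measured by optical density at 600 nm. Assay medium contained 2% galactose at pH 6.0; NS1-free yeast of the same strain were the positive control.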
RE007 growth inh: less growth of the S. pombe RE007 Vpr strain; S. pombe RE007 Vpr strain, BacTiter-Glo ATP luminescence, 24 h; control for the full effect not named in the record; Potency, µM (series often up to 92.2 µM), for the others: at the top dose activity change, negative = less growth; actives 0.21% (n = 360,000); AID 651644; active = well fitted falling curve with a large enough effect; inconclusive = small, poorly fitted or top-dose-only effect; inactive = no such curve, though single readings can be large or run the other way;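 note: % is set by controls: 0 for no effect and ±100 for the full control effect; nearly all actives have a fitted effect of over 50% in size; the assay follows cell death caused by Vpr and the record does not say whether a fall means rescue or toxicity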
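Fission yeast RE007 carrying one integrated HIV-1 vpr copy, seeded at OD 0.01 in PMG+AL medium with 23 nL pinned compound. Grown 24 h at 30 degrees; viability read by BacTiter-Glo luminescence after 5 min.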
Lassa entry inh: blocks Lassa virus binding to or entry into cells; Lassa virus pseudotype entry inhibition, cell reporter; control for the full effect not named in the record; Potency, µM (doses to about 37.9 µM), inactives show at the top dose activity change, negative = inhibition, actives largely listed as inhibitors; actives 1.2% (n = 300,000); AID 540256; active means well fitted inhibition curve with a large enough effect; inconclusive means small, poorly fitted or top-dose-only effect, or effect the other way; inactive means flat fitted curve, though single readings scatter; tested in HEK293 cells; note: % is set by controls: 0 for no effect and ±100 for the full control effect; nearly all actives have a fitted effect of over 50% in size; luciferase read-out
SARS PLP yeast: SARS-CoV PLP inhibition in yeast | AID 485353 | actives 0.19% (n = 330,000) | Potency, µM (series often up to 32.9 µM), for inactives: top-dose activity, positive = growth rescue | S. cerevisiae expressing SARS-CoV PLpro, growth rescue; control for the full effect not named in the record; active means well fitted rising curve with a large enough effect; inconclusive means small, poorly fitted or top-dose-only effect; inactive means no such curve, though single readings can be large or run the other way; note: 0% is about no effect; nearly all actives have a fitted effect of over 55% in size; growth read by luminescence after 48 h
2A StopGo: lowers the luciferase signal of an FMDV 2A StopGo reporter. human cells with a luciferase reporter of 2A StopGo recoding; control for the full effect not named in the record. Potency, µM (doses to about 57.9 µM), inactives show at the highest dose signal change, negative = less light. actives 1.2% (n = 410,000). AID 1159524; active = well fitted falling curve with a large enough effect; inconclusive = small, poorly fitted or top-dose-only effect; inactive = no such curve, though single readings can be large or run the other way; tested in HEK293T cells; note: % is set by controls: 0 for no effect and ±100 for the full control effect; nearly all actives have a fitted effect of over 45% in size; luciferase light after 4 h
Cruzain noTriton: blocks cruzain activity in detergent-free assay | P25779 | purified cruzain, Z-FR-AMC fluorescence, no detergent | Potency, µM, for inactives: max response, negative = inhibition, usual class: inhibitors | actives 2.3% (n = 200,000) | AID 1476;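 note: plate controls were enzyme without inhibitor for no effect and buffer without enzyme for full effect; nearly all actives have a fitted effect of over 40% in size; top concentration of the series not given in the record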
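Purified cruzain at 1.5 nM, pre-incubated 15 min with compound at room temperature in 100 mM sodium acetate pH 5.5, 5 mM DTT, 0.00005% Triton X-100. Reaction started with 2 uM Z-FR-AMC; AMC fluorescence increase over 60 s gives rate.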
Numbers without * were called inactive; ? = inconclusive; nt = not tested or not shown; & = joins results of further samples; [ ] = dose if it differs, or a comment. Unless noted, calls come from the whole dose curve; as a rule, active = well fitted curve in the direction sought with a large enough effect; inconclusive = small, poorly fitted or top-dose-only effect, or another doubt; inactive = no such curve, though single readings can be large; an effect the other way counts as inactive or inconclusive. Potency is the fitted concentration of half-maximal effect.

SMILES	Cruzain Triton	MARV entry inh	NS1 function inh	RE007 growth inh	Lassa entry inh	SARS PLP yeast	2A StopGo	Cruzain noTriton
Cc1nn(-c2ccc(Cl)cc2)c(N)c1C(O)(CSc1nccn1C)C(F)(F)F (stereo not given)	1.8%	2%	-5%	-1%	28%	-8%	-4%	-8%
CC(=O)N1CCC(=NNC(=O)CSc2cc(C)c(Br)cc2C)CC1	0.1%	-4%	10%	-14%	2%	25%	-1%	4%
Cc1nn(C)c2c1c(-c1ccccc1)cc(=O)n2C(C)C(=O)NCCc1ccc(Cl)cc1 (stereo not given)	-9.7%	nt	nt	nt	0%[46.1 µM]	nt	-14%	?
CCOC(=O)Cn1nc(C)n(-c2ccc(C)cc2)c1=O	7.8%	-15%	9%	-2%	?	2%	16%	-12%
Cc1ccc(S(=O)(=O)N(C)c2ccc(C(=O)Nc3ccccn3)cc2)cc1	nt	13%	nt	7%	-10%	-24%	?	nt
CCOCCCn1c(=N)c(C(=O)NCc2ccccc2)cc2c(=O)n3ccccc3nc21	-9.1%	?	nt	nt	-2%[46.1 µM]	nt	-5%	-2%
CCCCn1c(N)c(N(CC)C(=O)Cc2ccc(S(=O)(=O)N3CCOCC3)s2)c(=O)[nH]c1=O	nt	28%	nt	-1%	19%	2%	-18%	nt
Cc1cc(F)ccc1S(=O)(=O)N1CCCOC1CNC(=O)C(=O)NC1CC1 (stereo not given)	nt	-4%	7%	1%	17%	2%	-1%	nt
CC(=O)Nc1ccc(NC(=O)C(NC(=O)C2CCC(C)CC2)C(C)C)cc1 (stereo not given)	3.4%	?	nt	nt	11%[46.1 µM]	nt	-1%	8%
O=C(N/N=C/c1ccccc1C(=O)O)c1ccc(COc2cccc3cccnc23)cc1	nt	?	nt	3%	20%	-1%	14%	nt
COc1cc(NC(=O)CSc2nc3nc(C)c(Cc4ccc(C)cc4)c(C)n3n2)cc(OC)c1	-0.2%	nt	nt	nt	?	nt	?	21%
COc1ccc(-c2cccc(NS(=O)(=O)c3ccc(C)s3)c2)nn1	-4.1%	nt	nt	nt	2%[46.1 µM]	nt	29%	-6%
Cc1cccc2cc(CN(CCN3CCCC3)C(=O)NC3CCCCC3)c(=O)[nH]c12	-4.9%	-14%	2%	2%	16%	-8%	-23%	-7%
Cc1ccc(S(=O)(=O)N(C)CCN(C)S(=O)(=O)c2ccc(C)cc2)cc1	nt	-6%[46.1 µM]	nt	-2%	16%[46.1 µM]	nt	-11%	nt
O=C(O)c1cn(-c2ccc(F)cc2)c(=O)c2ccccc12	nt	24%[46.1 µM]	0%	-7%	1%[46.1 µM]	0%	0%	nt
CCOC(=O)c1[nH]c2cc(OC)c(OC)cc2c1NC(=O)C(C)N1CCN(Cc2ccccc2)CC1 (stereo not given)	-8.0%	?	3%	-11%	?	-2%	?	-2%
COc1ccc(NC(=O)CS(=O)CC(=O)Nc2ccc(NC(C)=O)cc2)cc1 (stereo not given)	nt	25%[46.1 µM]	13%	2%	nt	2%	1%	nt
Cc1cc2n(n1)C(c1cc(C(C)(C)C)c(O)cc1O)Nc1ccccc1-2 (stereo not given)	-16%	?	nt	nt	11%[46.1 µM]	nt	-8%	4%
CCC(C)Nc1nc2c(c(=O)n(C)c(=O)n2C)n1Cc1cccc(C)c1 (stereo not given)	-2.3%	-27%	-2%	-1%	?	1%	-16%	-12%
Cc1ccccc1CNS(=O)(=O)c1csc(C(N)=O)c1	3.7%	nt	6%	4%	13%[46.1 µM]	3%	13%&22%	-2%
O=C(NCC1CCCCC1)C1CCC(=O)N(CCc2cccc(F)c2)C1 (stereo not given)	nt	-20%[46.1 µM]	0%	6%	-5%[46.1 µM]	5%	-8%	nt
COc1ccccc1C(=O)Nc1nc2ccc(S(C)(=O)=O)cc2s1	-1.6%	-24%	-10%	-5%	39%[14.3 µM]	24%	8%	7%
Cc1cc(NC(=O)c2cccc(Oc3ccccc3)c2)n[nH]1	nt	nt	1%	18%	nt	-2%	32%[activator]	nt
O=C(CN1C(=O)c2ccccc2C1=O)NC1CCCCC1	nt	?	-4%	6%	-1%[46.1 µM]	?	13%	nt
Cc1ccc(C)c(NC(=O)Cc2csc(-c3ccccc3)n2)c1	0.0%	?	3%	3%	-1%	4%	-19%	-10%
COc1ccc(-n2c(=O)[nH]cc(C(=O)N3CCc4ccccc43)c2=O)cc1	1.2%	11%	-5%	-4%	-2%	10%	-5%	7%
CC(C)C[C@H](N)c1nnc(SCC(=O)Nc2ccc(Br)cc2)o1	nt	10%[46.1 µM]	-6%	5%	0%[46.1 µM]	1%	3%	nt
CCCCCCCCCCS(=O)(=O)N/N=C/c1ccc([N+](=O)[O-])cc1	-12%	?	-4%	-7%	1%	-15%	-17%	-3%
COc1ccc(-c2ccc(NS(=O)(=O)c3ccc(F)c(C(F)(F)F)c3)cc2)nn1	-0.1%	nt	nt	nt	0%[46.1 µM]	nt	5%	4%
O=C(CCc1ccccc1)N1CCCC1	nt	nt	7%	0%	nt	7%	12%	nt
CCN(CCC(=O)Nc1cc([N+](=O)[O-])ccc1OC)Cc1ccccc1	-6.2%	-3%	1%	20%	19%	-3%	-11%	-10%
Cc1nc2ccc(NC(=O)COc3ccccc3C)cc2s1	nt	15%[46.1 µM]	nt	2%	9%[46.1 µM]	-6%	18%	nt
COc1ccc(CCN/C=C2/CC(=O)NC2=O)cc1OC	-3.2%	1%[46.1 µM]	-3%	-14%	-7%	3%	-2%	-10%
Cc1ccccc1-c1ncc(CN2CCN(C3CCCCC3)C(CCO)C2)cn1 (stereo not given)	nt	nt	1%	9%	nt	1%	-6%	nt
COC(=O)C1=CN(Cc2ccc(C)cc2)C=C(C(=O)OC)C1c1cc(OC)c(OC)c(OC)c1	nt	nt	25%	1%	nt	1%	-7%	nt
O=C(CSc1nc(C2CC2)nc2ccccc12)N1c2ccccc2Sc2ccccc21	-5.2%	-83%	12%	0%	-9%	-1%	-26%	25µM*
Cc1cc2ncn(C(=O)c3c(-c4c(Cl)cccc4Cl)noc3C)c2cc1C	-5.6%	0%[46.1 µM]	-47%	-22%	1%	6%	-27%	5%
COc1cccc(NC(=O)c2ccc(N3C(=O)C4CCC(C)CC4C3=O)cc2)c1 (stereo not given)	nt	0%	nt	21%	?	nt	-27%	nt
Cc1oc2ccc(O)c(CN3CCCCC3C)c2c1C(=O)Nc1ccccc1 (stereo not given)	-3.3%	?	nt	nt	-24%[46.1 µM]	nt	-23%	-2%
COc1ccc(-c2cc(C#N)nc(N3CCNCC3)n2)cc1	-24%	?	4%	-13%	50%	-8%	-24%	32µM*
CCN(CC)C(=O)Cn1c(=O)cc(C)c2c(C)nn(C)c21	0.0%	nt	nt	nt	10%[46.1 µM]	nt	-18%	-8%
O=C(Nc1cccs1)Nc1cc(C(F)(F)F)ccc1Cl	-14%	?	nt	nt	nt	nt	8%	-2%
C=CC(COCc1ccccc1)N(Cc1ccccc1)S(=O)(=O)c1ccccc1Br (stereo not given)	nt	nt	-1%	-1%	nt	-5%	-4%	nt
O=C(O)CCCCCN=Cc1c(O)c2ccccc2oc1=O	nt	11%[46.1 µM]	nt	-1%	-6%	-1%	-1%	nt
O=C(CN1C(=O)COc2ccc(S(=O)(=O)N3CCOCC3)cc21)Nc1ccc(F)c(Cl)c1	-5.7%	nt	nt	nt	-20%[46.1 µM]	nt	14%	-5%
COc1cccc(NC(=O)c2ccc(-c3nc(COc4ccccc4)c(C)o3)cc2)c1	-1.8%	nt	nt	nt	1%[46.1 µM]	nt	?	-7%
O=C(N/N=C/c1ccccc1Cl)c1cccc(F)c1	-10.0%	?	-82%	0%	?	-7%	8%	-7%
Cc1cc(C)cc(NC(=O)CCNS(=O)(=O)c2cc(Br)cnc2N)c1	nt	nt	14%	4%	nt	-4%	13%	nt
NNC(=O)C1=NOC(CNc2ncc(C(F)(F)F)cc2Cl)C1 (stereo not given)	-2.9%	1%	6%	15%	3%	-11%	-15%	-4%
COc1ccc(CNC(=O)Cc2c(C)c3c(cc(C)c4c(C)c(C)oc43)oc2=O)cc1	1.1%	1%[46.1 µM]	nt	nt	-3%[46.1 µM]	nt	-10%	-10%
O=C(CCCCCNc1nc(=S)[nH]c2ccccc12)NCCc1ccc(Cl)cc1	nt	?	3%	0%	-2%	3%	-1%	nt
COc1ccc2[nH]c(C(=O)O)c(NS(=O)(=O)c3ccc(OC)c(OC)c3)c2c1	-2.4%	27%	3%	-15%	16%	12%	14%	-7%
COc1ccc(NCc2nnc(SCC(=O)Nc3nc(-c4ccccc4)cs3)n2-c2ccccc2)cc1	-1.1%	?	15%	-1%	4%	6%	-12%	25µM*
COc1ccc(NC(=O)CN(C)C(=O)c2ccc(NS(=O)(=O)c3ccc(C)c([N+](=O)[O-])c3)cc2)cc1	nt	1%	nt	2%	12%	-3%	16%	nt
Cc1cccc(N(C)C(=O)CCS(=O)(=O)c2cc3c(cc2Cl)NC(=O)CO3)c1	nt	nt	6%	6%	nt	2%	-16%	nt
CCCC(=O)Nc1ccc(C(=O)Nc2nnc(COC)s2)cc1	-1.4%	10%	-7%	3%	?	-16%	19%	-4%
NNC(N)=O	3.1%&1.0%	16%&16%&-1%&16%&16%&16%	-9%	4%	12%	0%	-20%	-6%&-7%
COc1ccc2cc3cc(C(=O)NCC4COc5ccccc5O4)oc3nc2c1 (stereo not given)	-23%	?	-36%	-13%	?	-1%	?	22%
O=C(N/N=C\c1ccc(-c2ccc([N+](=O)[O-])cc2)o1)C1COc2ccccc2O1 (stereo not given)	-6.6%	?	0%	-4%	?	-22%	-5%	?
